AID504770: E. coli YBA685 growth inhibition, screen for V. cholerae RctB inhibitors. E. coli YBA685 rctB-dependent plasmid, OD600 growth, 3 h; active compounds read low. z-score (concentration not given with the values). hit rate 0.27% among 130,000;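 active means z-score under -2 on both plates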;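 further: wells of about 30 µL received 100 nL stock; score is relative to mean and SD of the test wells; the first replicate is given; strong numbers were not always called active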
CapD inh: CapD enzyme inhibition; purified CapD enzyme, fluorescence intensity read-out; active compounds read low; some hits fall short of the stated cut; z-score (no concentration beside the values); hit rate 0.23% among 140,000; AID 492967;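 active means z-score under -4 in either of two replicates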;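 further: stock transfer was 100 nL into about 40 µL; score is relative to mean and spread of the plate; one replicate is shown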
Numbers without * were called inactive; nt = not tested or not shown; & = joins results of further samples.

no.	Compound	CapD inh	AID504770
1	CCN(CC)c1ccc2cc(C(=O)Nc3ccc(NC(C)=O)cc3)c(=O)oc2c1	nt	-1.3
2	COc1cc(CN2CCC(NC(=O)N(Cc3ccco3)Cc3cc4ccccc4o3)C2)cc2c1OCO2 (centres undefined)	-0.49	nt
3	COC(=O)N/N=C/c1ccc2c(c1)OCO2	nt	0.2
4	OCC#Cc1cnc2ccccc2c1	nt	-1.2
5	O=c1oc(-c2ccccc2Br)nc2sc3c(c12)CCC3	-0.09	1.3
6	Cc1cccc2c1N(C(=O)CN1C(=O)CCC1=O)C(C)(C)c1ssc(=S)c1-2	-0.6	nt
7	COc1ccc(Cl)cc1-c1nc(C=Nc2ccc(Br)cc2)c(O)o1	-0.91	nt
8	O=c1n(CCSc2nnnn2-c2ccccc2)nnn1-c1ccccc1	2.8	1.5
9	CCOC(=O)c1c(Nc2ccc(OC)c(Cl)c2)n[nH]c1C	nt	3
10	O=C1/C(=C\c2cn(-c3ccccc3)nc2-c2cccnc2)NC(=S)N1c1ccccc1	-0.58	nt
11	CN(CCNC(=O)Cn1ncc2c3ccccc3n(C)c2c1=O)C1CCCCC1	17	0.2
12	O=C(Nc1cccc2ncccc12)C1CC(=O)N(Cc2ccco2)C1 (centres undefined)	nt	0.05
13	COc1ccc2[nH]c(C)cc2c1	0.24	nt
14	CN1CCN(C(=O)c2ccc3c(c2)N(Cc2ccccc2F)C(=O)c2ccccc2S3(=O)=O)CC1	-0.11	0.1
15	CC1CCN(C(=O)COc2ccc(-c3nn(C)c(=O)c4ccccc34)cc2)CC1	0.03	0.55
16	CCc1ccc(NC(=O)Nc2ccccc2)cc1	0.33	0.65
17	Cc1ccc(C)c(S(=O)(=O)n2ccc(C)n2)c1	nt	1.1
18	CC(C)CC(=O)Nc1ccc(C(=O)COC(=O)c2ccc(-n3cnnn3)cc2)cc1	nt	0.5
19	COc1ccccc1COC(=O)N1CCN(c2ccc(C(F)(F)F)cc2)CC1	0.14	nt
20	CCOc1ccccc1C(=O)NCc1cn2ccccc2n1	-0.29	0.85
21	Cc1ccccc1CCN	nt	2.3
22	NC(=O)c1ccccc1N/C=C/C(=O)c1ccccc1	2.4	-0.2
23	Cc1cccc(NC(=O)c2cnn(-c3ccccc3)c2-c2ccccc2)c1C	-0.57	nt
24	CCc1ccccc1S(=O)(=O)Cc1ccc(C(=O)NCc2cccs2)o1	0.34	0.3
25	CCCS(=O)(=O)N1CCCC(C(=O)NC(C)C)C1 (centres undefined)	0.065	0.65
26	CCCCN=C1SCC(c2c[nH]c3ccccc23)=NN1C	nt	-0.1
27	COc1ccc(NC(=O)C(C)n2sc3ccccc3c2=O)cc1 (centres undefined)	4.9	1.4
28	O=C1CCc2c[nH][n+]3c2C1=C(NC(=O)c1ccccc1)N[B-]3(c1ccccc1)c1ccccc1	5.9	nt
29	O=S(=O)(NCc1nc(-c2ccccc2)no1)c1ccccc1	0.9	-0.5
30	CCC(Sc1nc2cc(OC)c(OC)cc2c2nc(-c3ccccc3)nn12)C(=O)NCc1ccco1 (centres undefined)	0.55	0.15
31	COc1ccc(-c2cc(C(F)(F)F)n3ncc(C(=O)Nc4cc5c(cc4C(C)=O)OCO5)c3n2)cc1OC	0.19	nt
32	O=C(NCCSCc1cc2cccc3c2n(c1=O)CCC3)C1CC1	7.5	nt
33	CCC(c1nnnn1CCOC)N1CCN(c2nc3ccccc3s2)CC1 (centres undefined)	nt	-0.1
34	Cc1ccc2c(c1)c1c3n2CCN(C(=O)Cn2c(-c4ccccc4)noc2=O)C3CCC1 (centres undefined)	nt	0.95
35	Cc1nn(Cc2n[nH]c(=S)o2)c(C)c1Br	-0.085	nt
36	O=C(NCc1cccc(C(F)(F)F)c1)c1ccc2cccnc2n1	-0.04	nt
37	CCN1CCN(c2cc(NCC(=O)O)c3c4c(onc24)-c2ccccc2C3=O)CC1	0.14	0.55
38	COc1cc(Br)cc2cc(C(=O)O)c(=O)oc12	-0.59	nt
39	COc1ccc(N2COc3ccc(OC)cc3C2)cc1	-0.14	-0.55
40	CC1(C)CC(=O)c2cnc(SCCS(=O)(=O)c3ccc(Cl)cc3)nc2C1	0	1.5

Given with two lines to a compound: entries from further up.
Below each SMILES: CapD inh | AID504770
28. O=C1CCc2c[nH][n+]3c2C1=C(NC(=O)c1ccccc1)N[B-]3(c1ccccc1)c1ccccc1
  5.9 | nt
23. Cc1cccc(NC(=O)c2cnn(-c3ccccc3)c2-c2ccccc2)c1C
  -0.57 | nt
24. CCc1ccccc1S(=O)(=O)Cc1ccc(C(=O)NCc2cccs2)o1
  0.34 | 0.3

Remaining list, next part.
no.	Compound	CapD inh	AID504770
41	Cc1ccccc1N=C1SCCN1C(=O)c1ccc2c(c1)OCCO2	nt	-0.75
42	Cc1c(C(=O)COc2nc(-c3cccs3)cc(C(F)(F)F)c2C#N)sc2ccccc12	7	nt
43	COc1ccn(C)c(=O)c1C#N	0.37&0.25	-0.95
44	CCOC(=O)c1c(NC(=O)C(C)Sc2nnc(CNC(=O)c3cccs3)n2C2CCCCC2)sc2c1CCC2 (centres undefined)	-0.23	nt
45	NS(=O)(=O)c1ccc(CCNC(=O)C2CCCCN2S(=O)(=O)c2ccccc2)cc1 (centres undefined)	nt	-0.75
46	Cc1ccc(S(=O)(=O)n2cnc3cc(C)c(C)cc32)c(C)c1	-0.56	-0.1
47	COC1=NC(C(F)(F)F)(C(F)(F)F)N=C(N2CCCCC2)O1	6	nt
48	CC(C)c1cc(=O)c2c(=O)n(-c3ccccc3)[nH]c2[nH]1	-1.2	-0.25
49	CCN(c1ccc(C)c(C)c1)S(=O)(=O)c1cc(Br)cc2c1N(C(C)=O)C(C)C2 (centres undefined)	3.3	0.2
50	CC12CC(c3c(ccc4ccccc34)O1)C(c1nc3ccccc3s1)C(=O)N2 (centres undefined)	2.3	nt
51	Cc1ccc(Nc2cc([Se]c3ccccc3)c(N)c3c2C(=O)c2ccccc2C3=O)cc1	-0.02	nt
52	FC(F)(F)c1cccc(-c2nnc3ccc4ccccc4n23)c1	0.045	nt
53	N#Cc1cc(-c2ccccc2)nc2ccc(Br)cc12	0.58	nt
54	O=C1Nc2ccccc2SC1CO (centres undefined)	0.2	-1.1
55	NC(=O)CC(NC(=O)c1ccccc1)C(=O)O (centres undefined)	-1.3	-0.5
56	COc1ccc(O[C@@H]2O[C@H](COC(C)=O)[C@@H](OC(C)=O)[C@H](OC(C)=O)[C@H]2NC(C)=O)cc1	1.2	nt
57	COc1cccc(/C=C2/SC(=S)N(C(C)C(=O)O)C2=O)c1 (centres undefined)	-1.2	nt
58	C/C(=N\N=C(/N)SCc1cc(F)cc2c1OCOC2)c1ccc(C)nc1	-0.29	0.55
59	COc1ccc(CC2C(=O)NC(=O)N(c3cccc(Cl)c3)C2=O)cc1 (centres undefined)	-0.035	1.6
60	O=S(=O)(Nc1ccc(Cl)cc1)c1cccc2nonc12	0.13	0.45
61	O=C(CSc1nc2ccccc2s1)OCC(=O)c1ccc[nH]1	nt	-0.25
62	CCCN1C(=O)c2ccccc2CC1(C)C(=O)NC1CCCCCC1 (centres undefined)	0.35	1.1
63	COC(=O)c1ccc2c(=O)[nH]c(COC(=O)c3ccccc3OCc3c(C)noc3C)nc2c1	nt	0.25
64	CCc1c(C)[nH]c(=S)c(C#N)c1C	-1.2	0.05
65	CCOC(=O)C1CCN(C(=O)C(C)OC(=O)c2ccccc2O)CC1 (centres undefined)	nt	0.75
66	CS(=O)(=O)c1ccc(CN(C(=O)c2cccc(C(F)(F)F)c2)c2ccccn2)cc1	-0.66	nt
67	COC(=O)C1CCCNC1=O (centres undefined)	-0.1	-0.6
68	COc1ccc(Nc2ccccc2N)cc1	1.8	-0.5
69	CN(C)S(=O)(=O)N(CC(=O)Nc1ccccc1F)c1ccccc1	0.62	0.95
70	Fc1ccc(CSc2nnc(-c3ccncc3)s2)cc1	0.45	0.8
71	CC(C)(O)C1(C)c2ccccc2CCN1Cc1ccccc1 (centres undefined)	-1.2	-0.65
72	CCOc1cc(C(=O)NC2=C(C(=O)OC)SCC2)cc(OCC)c1OCC	nt	0.85
73	CC(C)(C)C1CCc2c(sc3c2C(=O)NC(c2ccc(Cl)cc2)N3)C1 (centres undefined)	-0.78	nt
74	CCOC(=O)c1cc(NC(=O)SCC(=O)O)c(C)nc1C	nt	0.35
75	O=C1c2ccccc2C(=O)c2cc(OCC(O)Cn3c4ccccc4c4ccccc43)ccc21 (centres undefined)	0.46	nt
76	O=C(NC(=O)c1c(Cl)cccc1Cl)Oc1c(F)cccc1F	0.085	-0.8
77	c1coc(CSCCNc2nc(-c3cccs3)nc3ccccc23)c1	nt	-0.45
78	N#C/C(=C\C=C\c1ccco1)C(=O)Nc1cccc(Br)c1	nt	2.1
79	COCCNC(=O)c1ccc2c(=O)n(Cc3ccco3)c(SCC(=O)Nc3ccc(C)cc3)nc2c1	0.46	nt
80	CS/C(=C(/C#N)S(=O)(=O)C(C)C)N1CCCCC1	-0.62	-0.85
81	CCC1CCCCN1CC(O)COc1ccc2c(c1)OCO2 (centres undefined)	-0.87	-0.6
82	CC(=O)N(C)c1ccc(N=Nc2c(-c3ccccc3)[nH][nH]c2=O)cc1	nt	-0.95
83	Nc1nc(-c2ccc3c(c2)CCC(=O)N3)cs1	0.055	2.5
84	CN1C(=O)C(=Cc2cn(CC(=O)O)c3ccccc23)C(=O)N(C)C1=S	0.64	1.6
85	Cc1noc(C)c1C(=O)OCC(=O)NC(c1ccccc1)c1ccccc1	nt	0.2
86	O=C1CCCC(=O)C1C(c1ccc(-c2cc(C(F)(F)F)ccc2Cl)o1)C1C(=O)CCCC1=O	-0.26	-0.85
87	COC(=O)c1ccc(NC(=O)/C(=C\c2ccc3c(c2)OCO3)NC(=O)c2ccccc2OC)cc1	5.2	nt
88	FC(F)(F)c1ccc2ccccc2c1Cl	nt	1.6
89	CCOC(=O)c1nc(C)sc1-c1ccnn1S(=O)(=O)c1ccc(Cl)cc1Cl	10	-0.7
90	COc1cc(CCNC(=O)OCCC(C)c2ccccc2)cc(OC)c1 (centres undefined)	-0.61	nt
91	CC(=C\c1ccccc1)/C=C1/SC(=S)N(CCC(=O)Nc2nc(C)cs2)C1=O	-0.15	0.25
92	NC(=O)C1CCN(C(=O)CCC(=O)O)CC1	0.77	nt
93	Cc1ccc(CSc2nc3cc(C(=O)N4CCC(C(N)=O)CC4)ccc3c(=O)n2-c2ccc(F)cc2)cc1	1.2	nt
94	CCOC1OC(COC(C)=O)C(OC(C)=O)C(OC(C)=O)C1NC(C)=O (centres undefined)	-0.19	nt
95	COCCNC(=O)c1cc2c(s1)-c1ccsc1CC2	68	1.3
96	O=S(=O)(c1ccc(Cl)s1)N1CCN(c2ccc(Cl)cc2)CC1	-0.43	nt
97	Cc1nc2cc(CCO)ccc2s1	-0.075	-0.4
98	Brc1ccc2ncnc(N3CCCCCC3)c2c1	-0.41	-0.55
99	CCOC(=O)CC(=O)Cc1nc(N)nc(Nc2ccc(C)c(C)c2)n1	nt	-0.55
100	COc1ccc(N2CCN(C(=O)OCCN3CCN(Cc4ccccc4SC(C)(C)C)CC3)CC2C)cc1 (centres undefined)	-1.1	nt

Compounds listed so far that contain a tert-butyl group:
no.	Compound	CapD inh	AID504770
73	CC(C)(C)C1CCc2c(sc3c2C(=O)NC(c2ccc(Cl)cc2)N3)C1 (centres undefined)	-0.78	nt
100	COc1ccc(N2CCN(C(=O)OCCN3CCN(Cc4ccccc4SC(C)(C)C)CC3)CC2C)cc1 (centres undefined)	-1.1	nt

New compounds follow:
no.	Compound	CapD inh	AID504770
101	C=C1SC(=Nc2c(C)cc(C)cc2C)N(C(=O)c2c(Cl)sc3ccccc23)C12CCCCC2	-0.1	nt
102	Fc1cccc(F)c1CN1CCCCC1	-0.015	-0.35
103	Cc1ccc(C(=O)N2c3ccccc3N=C(c3ccc(Br)cc3)CC2c2ccccc2)cc1 (centres undefined)	-0.37	nt
104	c1ccc2c(c1)NC1(CCCC1)n1c-2nc2ccccc21	nt	0.5
105	Cn1cc(S(=O)(=O)Nc2ccccc2N2CCOCC2)c(C(F)(F)F)n1	0.36	0.2
106	Cc1nc(NC2=NCN(CCCN3CCOCC3)CN2)nc2c(C)cccc12	5.1	-1.3
107	CCCCNS(=O)(=O)c1cccc(C(F)(F)F)c1	nt	-0.95
108	COc1ccc(SCCC(=O)NCc2ccncc2)cc1	-2.1*	-0.75
109	CCOc1ccc(-c2nc(C#N)c(NCCCN(CC)CC)o2)cc1	19	0.05
110	O=C(NCCN1CCCc2ccccc21)c1cc(-c2cccs2)nc2ccccc12	-0.19	1.4
111	COc1ccc(-c2noc(N3CC(C)CC(C)C3)n2)cc1OC (centres undefined)	-0.14	-0.6
112	COc1cccc(C(=O)NCC2(c3ccccc3)CCCC2)c1	-0.09	-0.2
113	CC(C)C(=O)Nc1ccc(-c2nc3cccnc3s2)cc1	-0.7	1
114	COc1ccc(C(=O)NC(C)C)cc1I	-0.13	-0.45
115	FC(F)(F)c1ccc(Cn2c(-c3cccnc3Cl)nc3ccccc32)cc1	-0.33	nt
116	Cc1ccccc1-n1ccnc1SCC(N)=O	nt	0.9
117	Cc1ccc(Cn2c(C)c3cn[nH]c(=O)c3c2C)cc1	-0.035	-0.15
118	COC(=O)c1ccc(N2CCc3cc4ccc(C)cc4nc32)cc1	6	2.5
119	CC(Sc1nc2cc(Cl)ccc2c(=O)n1C(C)C)C(=O)Nc1ccc(N2CCOCC2)cc1 (centres undefined)	nt	0.75
120	O=c1nc(NC2CCCCC2)cn[nH]1	nt	-0.75
121	Cc1ccc2c(c1)N(S(=O)(=O)c1ccc(F)cc1)C(C(C)(C)C)CO2 (centres undefined)	-0.97	nt
122	CN(NC(=O)NC(=O)c1c(Cl)cccc1Cl)c1cccc(F)c1C#N	0.54	nt
123	O=C(/C=C/C=C/c1ccc2c(c1)OCO2)N1CCCCC1	-0.53&-0.31	0.15
124	CCOc1ccccc1C(=O)NC(C(=O)OC)C(C)C (centres undefined)	nt	-0.7

Screening data from PubChem.

A portion of the library, so the mix of outcomes need not match the whole.
